# nsP2pro inh: CHIKV nsP2 protease inhibition, primary qHTS; Q8JUX6; FRET peptide cleavage, nsP2pro, fluorescence 1 h; Potency, µM (titrated, usually from 24.9 µM), inactives show at the top dose activity change, negative = inhibition, actives largely listed as inhibitors; 31,000 tested, 1.1% active; active means well fitted inhibition curve with a large enough effect; inconclusive means small, poorly fitted or top-dose-only effect; inactive means no such curve, though single readings can be large or run the other way; note: nearly all actives have a fitted effect of over 60% in size; a reference inhibitor and vehicle were the controls
# An asterisk follows results filed as active; i = inactive; u = inconclusive; & = joins results of further samples; [ ] = another dose, or the depositor's remark. % is set by controls: 0 for no effect and ±100 for the full control effect; potency is the fitted concentration of half-maximal effect. An excerpt. The share of hits here may be higher or lower than overall.
SMILES,nsP2pro inh
Cc1ccc(-c2cn(CC3CCCN(c4cc(C)nc(N)n4)C3)nn2)cc1 (stereo not drawn),-16%
Cc1ccnc(NC(=S)N2CCN(c3cccc(C(F)(F)F)n3)CC2)c1,4%
Cc1ccc(CN2C(=O)NC3(CCN(C(=O)c4cccc(Cl)c4)C3)C2=O)cc1 (stereo not drawn),-1%
COCCNC(=O)Cn1nc(C)c2c(C)n(-c3ccc(C)cc3)nc2c1=O,-17%
CCCCCc1ccc(/C=C/C(=O)Nc2cc(Cl)ccc2C(=O)O)cc1,157%[activator]
Cc1ccc(CN2CCC(CNC(=O)Nc3c(C)cccc3C)C2)cc1 (stereo not drawn),-4%
Cc1ccc2c(=O)cc(C(=O)Nc3c(C(=O)c4ccc(F)cc4)oc4ccccc34)oc2c1C,-12%
Cc1ccc(NC(=O)C2CCN(S(=O)(=O)c3ccc4c(c3)CCCC(=O)N4)CC2)c(Br)c1,-5%
C=C1C(=O)O[C@@H]2[C@H]1CC[C@H](C)C(CCC(=O)O)C2(C)O (stereo partly drawn),u
COc1ccc2cc(CNc3ccccc3)c(=O)n(CC(=O)Nc3ccc(C(C)=O)cc3)c2c1,-10%
CC1CCCCN1CCCOC(=O)c1ccc(OC2CCCCC2)cc1 (stereo not drawn),4%
Cc1sc(NC(=O)Cc2ccc3c(c2)OCO3)nc1-c1ccc2c(c1)CCN2C(=O)c1ccccc1,i
Cc1ccncc1-c1c(C)nn2c1N(C(=O)c1scnc1C)CCC2,-18%[39.2 µM]
CC(=O)Nc1sc2c(c1-c1ccc(N(C)C)cc1)CCNC2,u
C=CCNc1oc(-c2cccc(Cl)c2)nc1C#N,-3%
Cc1ccc(S(=O)(=O)Nc2cnccc2C(=O)Nc2nc(-c3ccccc3)cs2)cc1,i
CC(C)(C)NCC(O)c1cc(Cl)c(N)c(C(F)(F)F)c1 (stereo not drawn),2%
CN(C)c1ccc(C(=O)NCCCCCC(=O)NO)cc1,u
O=C(CSc1c2c(nc3cc(Cl)ccc13)CCCC2)N1CCN(c2ccccc2F)CC1,-19%
COc1ccc(Cl)cc1NC(=O)C1CCN(S(=O)(=O)c2ccc3c(c2)CC(C)N3C(C)=O)CC1 (stereo not drawn),-10%
Cn1sc(=O)n(Cc2ccccc2)c1=O,6.2µM*
CCOc1cc2c(cc1OCC)C(CC(=O)OC)N(C(=O)Nc1cc(C)cc(C)c1)CC2 (stereo not drawn),-18%
C=CC(C)(O)CC/C=C(\C)C(=O)OC1C(O)C(CO)OC(OC(=O)C23CCC(C)(C)CC2C2=CCC4C5(C)CCC(OC6OC(COC7OCC(OC(C)=O)C(O)C7OC7OC(COC(C)=O)C(O)C(O)C7OC(C)=O)C(O)C(O)C6OC6OCC(O)C(O)C6O)C(C)(C)C5CCC4(C)C2(C)C(O)C3O)C1OC1OCC(OC2OCC(O)C(OC3OCC(O)C(O)C3O)C2O)C(O)C1O (stereo not drawn),7%[2.68 µM]
CCN(CC)S(=O)(=O)c1ccc2c(c1)N(CC(=O)NCC(C)c1ccccc1)C(=O)CO2 (stereo not drawn),-19%
O=C(c1cn(CCC2CCCCC2)nn1)N1CCN(C(=O)c2ccco2)CC1,-11%
CC(=O)OC1C[C@H](O[C@@H]2C(O)C[C@H](O[C@@H]3C(O)C[C@@H](OC4CC[C@]5(C)C(CCC6C5CC(O)[C@@]5(C)C(C7=CC(=O)OC7)CC[C@@]65O)C4)OC3C)OC2C)O[C@H](C)[C@H]1O[C@H]1OC(CO)C(O)C(O)C1O (stereo partly drawn),-14%&-4%
CCOC(=O)c1c(C)[nH]c(CCC(=O)NCc2ccc(OC)cc2OC)c1C,-20%
CCC(C)NC(=O)Cn1ccc2cc(S(=O)(=O)N3CCCCC3)ccc21 (stereo not drawn),-6%
COc1ccc(CCC(=O)NCCc2nc3ccccc3n2CCOc2ccc(C)cc2)cc1,-15%
CC1CCCCN1c1nnc(NC(=O)Nc2ccccc2F)s1 (stereo not drawn),-11%
Cn1nnnc1Sc1ncnc2scc(-c3ccc(Br)cc3)c12,i
Cc1cc(C)c(S(=O)(=O)Nc2cc(Cl)c3oc4c(c3c2)C(=O)CCC4)cc1C,-16%
Cc1ccc(S(=O)(=O)Nc2ccc(F)cc2C(=O)Nc2nc(-c3ccccc3)cs2)cc1,i
Cc1ccc(S(=O)(=O)c2cn(Cc3ccccc3F)c3cc4c(cc3c2=O)OCO4)cc1,-10%
COc1ccc(N2CCN(C(=O)CN(C)S(=O)(=O)c3cccs3)CC2)cc1,-27%
CNc1nccc(-c2cccc3ccccc23)n1,-11%
CC(C)c1cc(C(=O)N[C@@H]2COCC[C@@H]2OCc2cscn2)cs1,2%
C=C(C)C(=O)OC1[C@@H]2C(=C)C(=O)O[C@@H]2C[C@@H](C)[C@@H]2C=CC(=O)[C@@]12C (stereo partly drawn),-7%
O=C(Nc1ccc(NC(=O)c2cccs2)cc1)c1cccc(Br)c1,u
CC(C)n1ccnc1CN1CCC2(CCCO2)CCC1=O (stereo not drawn),i
CN(Cc1cc(Br)cc(Br)c1N)C1CCCCC1,u
COc1cc(OC)cc(C(=O)Nc2ccc3c(c2)OCCO3)c1,-19%
CC(C)(C)c1cc(C[C@H]2CNCC[C@H]2CC(=O)NC2CCCCC2)no1,u
CCOc1ccccc1CN1C[C@@H](CO)[C@H](NC(=O)c2cccnc2)C1,0%
COC(=O)c1ccc(OC(C)=O)c2ncccc12,i
CCN(CC)C(=O)c1csc(-c2cccc(OC(C)C)c2)n1,-1%
CCC(C(=O)O)n1ccc2cc(S(=O)(=O)N3CCCCC3)ccc21 (stereo not drawn),-21%
Cc1c(C(=O)N2CCC(C)CC2)c(S(=O)(=O)N(Cc2ccccc2)C(C)(C)C)c(C)n1C,-18%
CC1=C2C(=O)C=C(CO)C2[C@H]2OC(=O)[C@H](C)[C@@H]2[C@@H](OC(=O)Cc2ccc(O)cc2)C1 (stereo partly drawn),3%[10 µM]
COc1ccccc1CNC(=O)C(=O)NCC(c1ccco1)S(=O)(=O)c1ccc(C)cc1 (stereo not drawn),-23%
# Other records
SMILES,nsP2pro inh
CNc1nc(C(=O)N2CCC(c3nccn3Cc3ccncc3)CC2)cs1,-2%
O=C(Cn1c(=O)n(-c2ccccc2Cl)c(=O)c2sc3ccccc3c21)N1CCCC1,-12%
Nc1nc2c(ncn2C2OC3COP(=O)(O)OC3C2O)c(=O)[nH]1 (stereo not drawn),37%
O=S1(=O)c2ccccc2N(Cc2cccc(Cl)c2)c2ccccc21,-4%
COc1ccc(C(=O)O[C@H]2CC(C)=CC[C@@]3(C)[C@@H](OC(C)=O)C[C@@](O)(C(C)C)[C@H]23)cc1,u
CO/N=C(\C(=O)N[C@@H]1C(=O)N2C(C(=O)O)=C(COC(C)=O)CS[C@H]12)c1csc(N)n1,-17%
COc1ccc(N2CCN(C(=O)C3CCN(Cc4nc(-c5ccc(Cl)cc5)oc4C)CC3)CC2)cc1,-9%
O=C(O)c1ccc(-c2noc(-c3ccccc3Cl)n2)cc1,4%
Cc1cccc(N(C)C(=O)CCNS(=O)(=O)c2ccc3c(c2)CCN3C(=O)C2CC2)c1,-14%
C=CCNc1oc(-c2cccc(F)c2)nc1C#N,-1%

# A draw from above in order of number of heavy atoms, falling:
SMILES,nsP2pro inh
O=C(c1cn(CCC2CCCCC2)nn1)N1CCN(C(=O)c2ccco2)CC1,-11%
CC(=O)Nc1sc2c(c1-c1ccc(N(C)C)cc1)CCNC2,u
Cn1sc(=O)n(Cc2ccccc2)c1=O,6.2µM*

# The listing continues.
SMILES,nsP2pro inh
N#Cc1ccc(-c2ccc(CNc3ccc(N4CCCCC4)cc3)o2)cc1,3.5µM*
COc1ccc(OC)c(NC(=O)CCc2c(C)nc3c(c(C)nn3C(C)(C)C)c2C)c1,-14%
CCOc1ccc(C(Nc2ccccn2)c2ccc3ccc(C)nc3c2O)cc1C (stereo not drawn),116%[activator]
Cn1nnnc1Sc1ncnc2scc(-c3cccc(Cl)c3)c12,1%
OC[C@H]1O[C@@H](Oc2ccc(O)c3cccc(O)c23)[C@H](O)[C@@H](O)[C@@H]1O,67%[activator]
C[C@]1(O)CCN(C(=O)c2ccc3c(c2)OCC(=O)N3)C[C@@H]1O,i
CCCCS(=O)(=O)N1CCC(c2nnc(Cn3cncn3)n2C)CC1,4%
CCN(CC)C(=O)CC1Sc2ncccc2N(CC(C)C)C1=O (stereo not drawn),2%
CCOc1ccc(NC(=O)Cn2c(=O)n(-c3cccc(OC)c3)c(=O)c3c4c(sc32)CCCC4)cc1,-11%
CC[C@H]1CN2CC[C@H]1C[C@H]2[C@H](O)c1ccnc2ccc(OC)cc12,6%
CCOC(=O)c1[nH]c(C)c(CCC(=O)NCc2ccc(OCC)cc2)c1C,-3%
COc1cccc(N2CC3(COCC2=O)CN(c2ccc(C(F)(F)F)cn2)C3)c1,-13%[39.2 µM]
O=C(Nc1ccc(S(=O)(=O)Nc2nccs2)cc1)c1ccncc1,2%
C#C[C@H]1CN2CC[C@H]1C[C@@H]2CNS(=O)(=O)c1cccs1,3%[39.2 µM]
CCCOc1ccc(NC(=O)C(=O)NCCCN2CCOCC2)cc1,-12%
CCCCCc1ccc(/C=C/[C@H](O)[C@@H](CO)NC)cc1,16%
CCCCCCCCCCCC1=C(O)C(=O)C=C(O)C1=O,103%[activator]
Cc1cc(C)n(CCC(=O)N2CCC(Cc3nncn3-c3ccccc3)CC2)n1,i
Cc1cc(C)c(NC(=O)CSc2nc(=O)[nH]c3c2CCCC3)c(C)c1,-4%
COCCNCCCn1c(C(=O)CF)c(-c2ccc(C)cc2)c2c(N)ncnc21,-5%
CC(C)(C)c1ccc(C(=O)NCC(=O)OC(C(=O)Nc2cc(C(F)(F)F)ccc2Cl)c2ccccc2)cc1 (stereo not drawn),4%
COc1ccc(Cn2c(CCC(=O)Nc3ccc(C)cc3C)nc3cccnc32)cc1,-15%
O=S(=O)(Nc1ccc(C(O)(C(F)(F)F)C(F)(F)F)cc1)c1cccs1,-12%&-14%
COC(=O)c1ccc(C(=O)Nc2ccc(-c3nc4cc(NC(=O)c5ccc(C(=O)OC)cc5)ccc4o3)cc2)cc1,-12%
COc1ccc(C(=O)Nc2ccc3oc(-c4cccnc4)nc3c2)cc1,-5%
CC(C)(C)OC(=O)N1CCC(c2ccc(NCc3ccc(-c4ccc(C#N)cc4)o3)cc2)CC1,-6%
O=S(=O)(c1ccc2c(c1)OCCO2)N1CCN(S(=O)(=O)c2cc(F)c(F)cc2F)CC1,-18%
COc1ccccc1NC(=O)CCCOc1cc(=O)n(C)c2ccccc12,-13%
CC(C)c1ccc2c(c1)-c1ccccc1S(=O)(=O)N2CC(=O)N1CCCCC1,-19%
CCC1=C(C)CN(C(=O)NCCc2ccc(S(=O)(=O)NC(=O)NC3CCC(C)CC3)cc2)C1=O (stereo not drawn),-6%&-8%&-3%
CC1CCCCN1S(=O)(=O)c1cc2c(=O)nc3ccccn3c2cc1Cl (stereo not drawn),-23%
CCOC(=O)c1cccc(NC(=O)N2CCC(CN3CCc4ccccc4C3)CC2)c1,-7%
COc1ccccc1OCCNCC(O)CCOc1cccc2[nH]c3ccccc3c12 (stereo not drawn),12%
O=C1Cc2cc(S(=O)(=O)N3CCN(c4ccc([N+](=O)[O-])cc4)CC3)ccc2N1,0%
CC(C)(C)OC(=O)N1CCN(c2ccc(NCc3nnc(-c4ccc(C#N)cc4)o3)cc2)CC1,2%
O=C(Cn1ncc2c3ccccc3n(Cc3cccc(Cl)c3)c2c1=O)N1CCCCCC1,-17%
O=C(Cn1cc(S(=O)(=O)N2CCCC2)c(S(=O)(=O)N2CCCC2)c1)Nc1cccc(F)c1,-11%
CCCCCC(=O)Nc1ccc([C@H]2OCC(=O)N(Cc3nccn3C)[C@@H]2CO)cc1,i
CC1Oc2cc3c(-c4c(O)cc(O)c5c(O)c6c(cc45)OC(C)C(C)C6=O)c(O)cc(O)c3c(O)c2C(=O)C1C (stereo not drawn),-21%
Cc1cc(N2CCN(Cc3nnc(C4CC(N)C4)n3C)CC2)cc(C)n1 (stereo not drawn),i
CC(=O)c1c(C)nn(CC(=O)NC(C)c2cnn(-c3ccccc3C)c2C)c1C (stereo not drawn),4%
CC(CNC(=O)CCCn1c(=O)c2cccn2c2ccc(F)cc21)c1ccccc1 (stereo not drawn),-8%
Cc1c(CC(=O)N(C)C(C)C)c2c(n1Cc1ccccc1F)CCCC2=O,-3%
CCc1ccccc1NC(=O)[C@@H](c1ccccc1)N1Cc2ccccc2C1=O,-12%
S=C(Nc1cc(Cl)ccn1)N1CCN(c2ccc3ccccc3n2)CC1,u
CCn1cnnc1CC1CCN(C(=O)c2[nH]nc3c2COc2ccccc2-3)CC1,-11%
Cc1cccc(CSc2nc3cccnc3n2Cc2ccc(C(=O)NCc3ccco3)cc2)c1,-9%
COc1ccc(CNc2ccc(-c3nc4ccccc4[nH]3)cc2)cc1OC,-1%
COC(=O)c1ccccc1NC(=O)Cn1c(CCC(=O)O)ccc1-c1cccs1,2%
Cn1cncc1CNc1ncnc2ccc(-c3ccc4c(c3)OCO4)cc12,i

# Entries shown so far that have a thiophene ring, fused or not, in the order listed:
SMILES,nsP2pro inh
CC(=O)Nc1sc2c(c1-c1ccc(N(C)C)cc1)CCNC2,u
Cn1nnnc1Sc1ncnc2scc(-c3ccc(Br)cc3)c12,i
COc1ccc(N2CCN(C(=O)CN(C)S(=O)(=O)c3cccs3)CC2)cc1,-27%
CC(C)c1cc(C(=O)N[C@@H]2COCC[C@@H]2OCc2cscn2)cs1,2%
O=C(Nc1ccc(NC(=O)c2cccs2)cc1)c1cccc(Br)c1,u
O=C(Cn1c(=O)n(-c2ccccc2Cl)c(=O)c2sc3ccccc3c21)N1CCCC1,-12%
Cn1nnnc1Sc1ncnc2scc(-c3cccc(Cl)c3)c12,1%
CCOc1ccc(NC(=O)Cn2c(=O)n(-c3cccc(OC)c3)c(=O)c3c4c(sc32)CCCC4)cc1,-11%
C#C[C@H]1CN2CC[C@H]1C[C@@H]2CNS(=O)(=O)c1cccs1,3%[39.2 µM]
O=S(=O)(Nc1ccc(C(O)(C(F)(F)F)C(F)(F)F)cc1)c1cccs1,-12%&-14%
COC(=O)c1ccccc1NC(=O)Cn1c(CCC(=O)O)ccc1-c1cccs1,2%
